Screening results as filed in PubChem BioAssay.
Vaccinia mCherry: vaccinia inhibition (mCherry reporter); Vaccinia virus mCherry reporter infection, fluorescence; about a quarter of the inactives have no number; Potency, µM (doses to about 36.5 µM), without a hit: at the highest dose activity change, negative = inhibition, usual class: inhibitors; 310,000 tested, 0.63% active; active = well fitted inhibition curve with a large enough effect; inconclusive = small, poorly fitted or top-dose-only effect; inactive = no such curve, though single readings can be large or run the other way; tested in A549 cells; also: nearly all actives have a fitted effect of over 35% in size; inactives centre near -10
Vaccinia Venus: vaccinia inhibition (Venus reporter); Vaccinia virus Venus reporter expression, fluorescence; Potency, µM (titrated, usually from 36.5 µM), for inactives: at the highest dose activity change, negative = inhibition, most hits filed as inhibitors; 330,000 tested, 0.46% active; AID 720580; active means well fitted inhibition curve with a large enough effect; inconclusive means small, poorly fitted or top-dose-only effect; inactive means no such curve, though single readings can be large or run the other way; tested in A549 cells; also: nearly all actives have a fitted effect of over 30% in size; inactives centre near -10
* marks the source's active call; other numbers are inactive results; i = inactive; ? = inconclusive; / = no result given; & = joins results of further samples; [ ] = dose if it differs, or a comment. % is scaled to controls: 0 for no effect and ±100 for the full control effect; potency is read from the fitted curve at half-maximal effect.

smiles	Vaccinia Venus	Vaccinia mCherry
NC(=O)c1nsc(C(=O)N(CCCN2CCOCC2)C(C(=O)NC2CCCCC2)c2ccc(Cl)cc2)c1N (stereo not drawn)	-4%	2%
CN(C)c1ccc(/C=N/n2c(-c3cccnc3)n[nH]c2=S)cc1	-17%	i
O=C(CCN1C(=O)c2ccccc2S1(=O)=O)Nc1ccc2c(c1)OCCO2	-13%	-21%
C/C(=N\NC(=S)NC1CCCCC1)c1cccc(Br)c1	-16%	-3%
COc1cccc(C(C)(O)c2nc(-c3ccc(C)c(C)c3)cs2)c1 (stereo not drawn)	2%	0%
CCN(c1ccccc1)S(=O)(=O)c1ccc(C(=O)N2CCN(c3ccccc3)CC2)cc1	-23%	-29%
Cc1ccc(Cc2c(-c3ccccc3)nc3ccc(Cl)cn23)cc1	-13%	i
CCOC(=O)C1(C)CCN1C(=O)c1ccc(Cl)nc1 (stereo not drawn)	-2%	6%
Cc1cc(C)c2c(CCl)cc(=O)oc2c1	?	-20%
Cc1ccc(/C=c2\sc3nc(-c4cccnc4)nn3c2=O)cc1	5%	-6%
CCOc1ccc(Nc2cc3n(c(=O)n2)CCc2cc(OC)c(OC)cc2-3)cc1	-23%	-5%
CCCn1c2ccc(C)cc2c2nnc(SCCN3CCCCC3)nc21	?	?
COc1ccccc1CN1C[C@@H]2C[C@@H](c3ccccc3OC)N3CCC[C@@]23C1=O	-23%[7.34 µM]	i[7.34 µM]
COc1ccc(-c2c(-c3cc(OC)cc(OC)c3)n(C)c3ccc(-c4cnc(N)nc4)cc23)cc1	?	i
CN(C)/C=N/c1sc2c(c1C#N)CCCCC2	-8%	-8%
O=C(NC1CC1)c1ccccc1NC(=O)c1ccccc1OC(F)F	-22%	-18%
O=C(C1CC1)N1CCN(c2ccc([N+](=O)[O-])cc2-n2cccc2)CC1	-16%	-9%
CCSc1nncn1/N=C/c1ccc(OC)c(OC)c1	-16%	/
CC(C)C(c1nnnn1CC1CCCO1)N1CCN(C2CCCC2)CC1 (stereo not drawn)	-24%	/
c1ccc(CCc2nc(-c3ccccc3)no2)cc1	4%	-7%
Cc1ccc(C(=O)Oc2cc(C)n(C)c(=O)c2)cc1	-22%	/
NC(=O)N1CC(O)CC1C(=O)Nc1ccc(Cl)c(Cl)c1 (stereo not drawn)	-9%	i
OC1C2CCC(C2)C1CN1CCOCC1 (stereo not drawn)	-1%	i
COC(=O)c1cc(OC)c(OC)cc1NC(=O)Cc1ccccc1[N+](=O)[O-]	-15%	-16%
COc1ccc(/C=C2\SC(=S)N(CCCC(=O)Nc3ccccn3)C2=O)cc1OC	-5%	?
O=C(Cc1cccs1)N(Cc1ccco1)C1(C(=O)NC2CCCC2)CCCCC1	-12%	-18%
O=C1NC(=O)C(=CN2CCc3ccccc32)C(=O)N1	5%	-7%
Cc1cccc(Oc2ccccc2NC(=O)c2cnccn2)c1	-28%	/
Cc1cccc(-c2nc(C(N)=O)c3c(n2)n(-c2ccc4c(c2)OCO4)c(=O)n3C)c1	-5%	-16%
CCc1ccc(N2CC(C(=O)NNC(=O)c3ccc(F)cc3)CC2=O)cc1 (stereo not drawn)	0%	-8%
CCC1(C)SC(NC(C)=O)=NN1C(C)=O (stereo not drawn)	-9%	-3%
COc1ccc2cc(C(C)C(=O)O)ccc2c1 (stereo not drawn)	-6%&-11%	-18%
CCC1(C2CCN(C(=O)c3csc(C(C)=O)c3)CC2)NC(=O)N(CCc2scnc2C)C1=O (stereo not drawn)	3%	-4%
CCCCCc1c(-c2cccc(F)c2)ncn1CCc1ccccc1OC	-20%	-24%
COC(=O)C1CCN(Cc2ccc3c(c2)CN(C(=O)c2cc4cc(F)ccc4[nH]2)CCO3)CC1	1%	-5%
O=C(Nc1ccc(C(=O)O)cc1)/C(=C\c1ccccc1)NC(=O)c1ccc(Br)cc1	-4%	-12%
O=C(CCS(=O)(=O)c1ccccc1)Nc1nc2c(s1)CCCC2	-26%	-9%
O=S(=O)(NCC1CCCO1)c1ccc2oc3ccc(S(=O)(=O)NCC4CCCO4)cc3c2c1 (stereo not drawn)	-11%	0%
N#C/C(=N/Nc1ccccc1[N+](=O)[O-])C(N)=S	-15%	-26%
COc1cc(/C=C2\SC(=S)N(CCCCC(=O)O)C2=O)ccc1OS(=O)(=O)c1ccc(C)cc1	-10%	-6%
COc1ccc(OCC(=O)Nc2ccccc2C(=O)OCc2cc(=O)n3nc(C)sc3n2)cc1	-12%	-16%
CC(C)CN(C(=O)C1CCCCC1)C1CCS(=O)(=O)C1 (stereo not drawn)	-3%	-13%
NC(=O)C1CCN(C(=O)c2ccccc2NC(=O)c2nsc3ccccc23)CC1	-7%	-22%
CC(C)(C)OC(=O)NCCC(=O)N/N=C/c1cccc2nccnc12	-16%	-5%
COc1ccc(-c2nc3cnccn3c2NC(C)(C)CC(C)(C)C)cc1O	?	?
COc1cc(C(=O)Nc2ccc(Oc3ncnc4sc(-c5ccccc5)cc34)cc2)cc(OC)c1OC	-4%	-5%
COc1ccccc1CNC(=O)COCc1cc(-c2ccc3c(c2)OCO3)on1	-12%	-13%
CCOc1ccc(-n2cc(C(=O)Nc3cccc(Cl)c3)c3cc(OC)c(OC)cc3c2=O)cc1	-10%	-26%
CC(C)(C)NC(=O)C(C1CC1)n1c(=O)c(-c2cc3ccccc3[nH]2)nc2ccccc21 (stereo not drawn)	?	?
CCOC(=O)N1CCC(NC(=O)C2CCN(S(=O)(=O)c3cccc4cccnc34)CC2)CC1	-4%	10%
Cc1ccc(/C=C/C(=O)N2CCc3ccccc32)o1	-6%	-12%
NS(=O)(=O)c1ccc(CCNC(=O)c2ccccc2-c2ccccc2)cc1	-3%	-2%
Cc1cc(Nc2ccccc2C(=O)O)n2ncnc2n1	-7%	i
Cc1cccc(CCNC(=O)CCc2c(C)nc3ncnn3c2C)c1	-3%	-3%
CC1CCN(C(=O)CSc2nnc(-c3ccc(S(=O)(=O)N4CCOCC4)cc3)n2C)CC1	-4%	-1%
CNc1ccccc1C(=O)N1CCc2c([nH]c3ccccc23)C1=O	-5%	-10%
OC(c1cc(F)cc(Cl)c1)c1ncc(-c2ccc(Cl)cc2)[nH]1 (stereo not drawn)	-12%	11%
NC(=O)c1nsc(C(=O)N(c2ccccc2)C(C(=O)NCC2CCCO2)c2ccc(F)cc2)c1N (stereo not drawn)	4%	-15%
Cc1cc(NC(=O)c2ccc(C)o2)no1	0%	i
COc1ccc(S(=O)(=O)NCc2nc(-c3ccccc3)no2)cc1	-20%	-13%

Complete entries, looked up by structure. Order of values: Vaccinia Venus	Vaccinia mCherry
Listed for NS(=O)(=O)c1ccc(CCNC(=O)c2ccccc2-c2ccccc2)cc1 : -3%	-2%
Listed for Cc1ccc(/C=C/C(=O)N2CCc3ccccc32)o1 : -6%	-12%
Listed for CNc1ccccc1C(=O)N1CCc2c([nH]c3ccccc23)C1=O : -5%	-10%
Listed for CCOC(=O)N1CCC(NC(=O)C2CCN(S(=O)(=O)c3cccc4cccnc34)CC2)CC1 : -4%	10%
Listed for Cc1cc(NC(=O)c2ccc(C)o2)no1 : 0%	i

Continuation:
smiles	Vaccinia Venus	Vaccinia mCherry
COc1ccccc1OCc1nc(C#N)c(NCc2ccco2)o1	-1%	-19%
CC(C)c1ccc(NC(=S)N2CCCC2)cc1	-13%	-19%
Cc1ccc(NC(=O)C2CCCN(S(=O)(=O)c3ccc4c(c3)CCCC(=O)N4)C2)cc1Cl (stereo not drawn)	-4%	-12%
O=C(COc1nncc2ccccc12)NCC(F)(F)F	-13%	i
Fc1ccc(C(c2nnc(-c3ccccc3)o2)N2CCN(c3ccccc3)CC2)c(Cl)c1 (stereo not drawn)	-9%	-15%
CC1CC(C)CN(S(=O)(=O)c2ccc(NC(=O)CN3C(=O)NC(C)(c4ccccc4)C3=O)cc2)C1 (stereo not drawn)	-22%	-13%
O=C(Nc1nc2n(n1)C(c1ccc(F)cc1)C=C(c1ccccc1)N2)c1ccc(Cl)cc1 (stereo not drawn)	-18%	-14%
O=C(CCCCCN1C(=O)c2cccc3cccc(c23)C1=O)N1CCOCC1	3%	-12%
CCCNC(=O)CCNC(=O)c1ccc(C(C)(C)C)cc1	-7%	-4%
O=C(NC12CC3CC(CC(C3)C1)C2)N1CCN(c2ncccn2)CC1	1%	-13%
CC1=Nc2cccc3cccc(c23)N1C	-11%	-16%
CCc1ccc(OCC(=O)NC(=S)Nc2ccc(C(=O)O)cc2)cc1	-3%	5%
CCCCS(=O)CC(CS(=O)CCCC)OC(=O)c1ccc(C)cc1 (stereo not drawn)	-6%	-7%
CCN(CC)CCN1CNC(=S)N(c2ccccc2OC)C1	-18%	-29%
COc1cc(-c2noc(CCC(=O)Nc3cc(C)ccc3C)n2)cc(OC)c1OC	1%	-5%
c1ccc(CSc2ncn(-c3ccccc3)n2)cc1	-7%	/
Clc1ccc(SCc2cc(-c3ccc(Cl)cc3)on2)cc1	-12%	-7%
O=c1c2ccccc2nc(-c2ccc(Cl)cc2)n1CCCOc1ccccc1F	-1%	i
FC(F)Oc1ccc(NC(=S)N2CCc3ccccc32)cc1	-18%	-24%
CCOc1ccc(NC(=O)CCC(=O)N/N=C2\CCCc3ccccc32)cc1	-11%	-10%
Cn1c(C(=O)N[C@@H](Cc2ccccc2)C(=O)NCCC(=O)O)cc2cc(Cl)ccc21	-7%	i
COc1ccc(N2CCN(C(=O)COC(=O)c3cccc(S(=O)(=O)Nc4ccccc4OC)c3)CC2)cc1	-11%	?
O=C(CCCNc1ccccc1)N/N=C/c1cccs1	-9%	i
COC(=O)c1ccc(N/C=C/C(=O)c2ccccc2)cc1	-3%	i
COc1ccccc1C(=O)Nc1cc2c(cc1N1CCCC1)n(C)c(=O)c(=O)n2C	-11%	-8%
CSc1ccc(S(=O)(=O)NCC(=O)OCC(=O)NCCc2ccccc2)cc1[N+](=O)[O-]	-8%	-9%
CCC(C)(C)NC(=O)C(c1ccc(O)cc1)N(Cc1ccco1)C(=O)CCC(=O)Nc1ccccn1 (stereo not drawn)	9%	-9%
O=C(Nc1ccccc1)c1ccccc1NS(=O)(=O)c1ccc(Cl)s1	?	?
CCC(=O)c1ccc(-c2ccccc2)cc1	-7%	-9%
CN(CCC#N)C(=S)Nc1ccc(F)cc1	-7%	-1%
CCOC(=O)CN(C(=O)COc1nc(C)cc(C)c1C#N)c1ccc(F)cc1	-10%	-12%
C=CCn1c(=S)[nH]c2sc3c(c2c1=O)CCC3	-17%	-28%
Cc1cc(OCC(=O)N[C@@H](Cc2ccccc2)C(=O)O)c2c3c(c(=O)oc2c1)CCC3	1%	-6%
CC(C)N(C)CCOC(=O)/C=C/c1ccccc1	-12%	-9%
CCOC(=O)c1ccccc1NC(=O)COC(=O)CCCOc1ccccc1	-15%	i
Cc1noc(C)c1COc1ccc(C(=O)OCC(=O)NC2CCCCC2C)cc1 (stereo not drawn)	-7%	-11%
CCN1C(=O)c2ccccc2Sc2ccc(NC(=O)c3ccc(C#N)cc3)cc21	-24%	-27%
Cc1cccc(NC(=O)CSc2nc(=O)n(CCN3CCOCC3)c3c2CCC3)c1	-4%[7.34 µM]	-3%[7.34 µM]
CCN1CCN(CCCNC(=O)c2ccc3c(c2)sc2nc(-c4ccc(OC)cc4)cn23)CC1	?	?
COc1ccc(/C=C(/NC(=O)c2ccc(OC)c(OC)c2)C(=O)NCCc2c[nH]c3ccccc23)cc1	-14%	i
COc1cc(C(=O)NCCC(=O)N2CCCCC2)cc(OC)c1OC	-9%	i
CC1(C)CC(=O)C2=C(C1)N(c1ccc(Cl)cc1)C(=O)C2(O)C(F)(F)F (stereo not drawn)	-7%	-5%
CCCCOC(=O)C1CN(c2ccccc2)N=C1C(C)=O (stereo not drawn)	-14%	?
CCOc1cc(/C=C2/C(=O)NC(=O)N(c3ccc(CC)cc3)C2=O)ccc1OC(=O)c1cccs1	-1%	-4%
CCOc1ncccc1C(=O)OCC(=O)Nc1ccc(C(N)=O)cc1	-14%	-15%
COc1cc(C(=O)OCC(=O)NCc2ccco2)cc(OC)c1OC	-18%	/
N#C/C(=C/c1cn(Cc2ccc(F)cc2)c2ccccc12)C(=O)Nc1cccc(Cl)c1	-9%	-18%
COc1ccc(C(=O)Nc2cc(Cl)cc(Cl)c2)c(OC)n1	2%	/
CCc1nc2ccc(C(=O)NCCCN3CCCC3=O)cn2c1N(CC)CCN(C)C	2%	24%
COC(=O)CSc1cc(SCC(=O)OC)c(C#N)c(SCC(=O)OC)c1	-5%	/
Cc1occc1-c1nnc(SCC(=O)Nc2nccs2)n1Cc1ccco1	-5%	-16%
NC(=O)c1cc2ccccc2o/c1=N\NC(=O)c1ccncc1	-13%	i
COc1cc2c(cc1NC(=O)c1ccc(C)c([N+](=O)[O-])c1)oc1ccccc12	-2%	-3%
COc1cccc(C(=O)N2CCC(CCC(=O)Nc3cccc(C)c3)CC2)c1	-9%	-14%
